Screening results (PubChem BioAssay)
Measles inh: inhibitors of measles virus growth in infected cells; 0.1% of 33,000 active; infected Vero cells, GFP fluorescence, 64 h; hits give low values; z-score (test concentration not listed);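 active means z-score under -3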;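 further: score is relative to mean and SD of the compound wells of a plate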
Starred values were filed as active, the others as inactive. A portion of the library; the hit share may differ from the screen's.

Start of the listing, in advance (2 entries):
SMILES	Measles inh
NS(=O)(=O)c1cc2c(cc1C(F)(F)F)NC(Cc1ccccc1)NS2(=O)=O (stereo not given)	-0.41
COC(=O)c1ccccc1NC(=O)CCOc1ccccc1	-0.99

Main list, from the first entry:
SMILES	Measles inh
NS(=O)(=O)c1cc2c(cc1C(F)(F)F)NC(Cc1ccccc1)NS2(=O)=O (stereo not given)	-0.41
COC(=O)c1ccccc1NC(=O)CCOc1ccccc1	-0.99
CCN1CCCC1CNC(=O)C1c2cc(OC)c(OC)cc2C(=O)N(C)C1c1ccc(OC)cc1 (stereo not given)	1.4
COc1ccccc1C1C2=C(CC(C)(C)CC2=O)Nc2ccccc2N1C(=O)CCC(=O)O (stereo not given)	-0.28
